Screening results as filed in PubChem.
Mtb growth = Mycobacterium tuberculosis H37Rv growth inhibition, putative kinase inhibitor library, confirmatory dose response (AID 2842); M. tuberculosis H37Rv growth inhibition; higher % means a stronger effect; some inactives read as strong as hits; inhibition, % at 10 µg/mL; hits with a dose series show IC90 in µg/mL; 24,000 compounds, 5.2% hits;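 active means confirmed in a dose series; inconclusive means mostly over 85% at the one dose but not retested; inactive means below 85% or not confirmed; about a fifth of its hits are not listed in these tables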;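 further: bacteria incubated one week before Alamar blue readout; 0% = bacteria only wells and 100% = bacteria with high antibiotic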
Numbers without * were called inactive; ? = inconclusive. This is a subset. The share of hits here may be higher or lower than overall.

SMILES	Mtb growth
COc1ccc(C(=O)Nc2c(N)nc(SCC(=O)Nc3ccccc3C)[nH]c2=O)cc1OC	8.8%
O=C(Nc1nc(-c2ccc3c(c2)OCO3)cs1)c1ccccc1Br	71.0%
COc1ccc(-c2nc3c(c(SCC(=O)Nc4c(C)cccc4C)n2)Cc2ccccc2O3)cc1	12.8%
COc1ccccc1-n1c(=O)[nH]c2c(C(N)=O)nc(-c3cccc(C)c3)nc21	-1.3%
Cc1ccc(NC(=O)CSc2ccc3nnc(CCNC(=O)c4ccc(F)cc4)n3n2)cc1Cl	-5.4%
CC1=C(C(=O)Nc2ccccc2)C(c2ccco2)C(C#N)=C(SCc2ccc(Cl)cc2)N1 (stereo unspecified)	61.1%
COc1ccc(NC(=O)C(=O)Nc2cc3c4c(c2)CCC(=O)N4CCC3)cc1	11.1%
O=C(Nc1c(C(=O)Nc2cccc(Cl)c2)oc2ccccc12)c1ccc([N+](=O)[O-])cc1	7.1%
Cc1nc(N)sc1-c1n[nH]c(=S)n1C	-1.4%
O=C(Nc1nc(-c2ccc(Br)s2)cs1)c1ccc(N2C(=O)CCC2=O)cc1	32.7%
CCOCCn1c(=NC(=O)c2ccc3c(c2)OCCO3)sc2cc(S(N)(=O)=O)ccc21	-4.9%
COc1ccc(NC(=O)c2ccc(S(=O)(=O)N3CCCC3)cc2)cc1	3.6%
CCS(=O)(=O)c1ccccc1C(=O)Nc1nc2c(s1)C(=O)CC(C)(C)C2	4.8%
COc1ccc(C(=O)Nc2cc(=O)n(C)c(=O)n2C)cc1	-9.6%
Cn1c(NNC(=O)c2ccc(-c3ccccc3)cc2)cc(=O)n(C)c1=O	2.1%

Ordered by molecular weight (smallest number first): 4 of the compounds above
SMILES	Mtb growth
Cc1nc(N)sc1-c1n[nH]c(=S)n1C	-1.4%
COc1ccccc1-n1c(=O)[nH]c2c(C(N)=O)nc(-c3cccc(C)c3)nc21	-1.3%
CCS(=O)(=O)c1ccccc1C(=O)Nc1nc2c(s1)C(=O)CC(C)(C)C2	4.8%
Cc1ccc(NC(=O)CSc2ccc3nnc(CCNC(=O)c4ccc(F)cc4)n3n2)cc1Cl	-5.4%

Later entries:
SMILES	Mtb growth
COC(=O)C1=C(NC(=O)COc2ccc3ccccc3c2)CCS1	7.2%
NC(=O)C1CCN(C(c2ccc(F)cc2)c2sc3ncnn3c2O)CC1 (stereo unspecified)	-2.9%
Cc1ccc(N2CC(NC(=O)NCc3ccccc3Cl)CC2=O)cc1 (stereo unspecified)	8.6%
C=CCn1c(NCCO)nc2sc3c(c2c1=O)CCC3	-4.4%
CCCn1c(NC(C)CC)nc2c1c(=O)[nH]c(=O)n2C (stereo unspecified)	-1.5%
Cc1ccccc1OCC(O)Cn1c(SCC(N)=O)nc2c1c(=O)[nH]c(=O)n2C (stereo unspecified)	6.3%
COc1cc(-c2nnc(NC(=O)c3cccs3)o2)cc(OC)c1OC	67.8%
O=C(Nc1nnc(-c2ccc(Br)cc2)o1)c1ccc([N+](=O)[O-])cc1	50.9µg/mL*
Cc1ccc(C)c(NC(=O)CSc2ncnc3c2oc2ccccc23)c1	98.2%
COc1ccc(N2CC(NC(=O)Nc3nc4ccc(C)cc4s3)CC2=O)cc1OC (stereo unspecified)	-17.4%
CCOc1cccc2sc(N3CCN(c4nc5c(OCC)cccc5s4)CC3)nc12	3.3%
CCOc1ccccc1-c1cc(C(=O)N/N=C/c2cccc(OC)c2O)[nH]n1	16.9%
CC(=O)N1CCc2c(sc(NC(=O)c3ccc(N(C)C)cc3)c2C(N)=O)C1	8.5µg/mL*
CN(c1ccccc1)S(=O)(=O)c1ccc(C(=O)Nc2nnc(-c3ccco3)o2)cc1	8.33µg/mL*
COC(=O)C1=C(C)Nc2nc(SCc3ccccc3)[nH]c(=O)c2C1c1ccc(Cl)cc1 (stereo unspecified)	64.4%

The final 4 compounds of the section before lead into the next.
SMILES	Mtb growth
CCOc1ccccc1-c1cc(C(=O)N/N=C/c2cccc(OC)c2O)[nH]n1	16.9%
CC(=O)N1CCc2c(sc(NC(=O)c3ccc(N(C)C)cc3)c2C(N)=O)C1	8.5µg/mL*
CN(c1ccccc1)S(=O)(=O)c1ccc(C(=O)Nc2nnc(-c3ccco3)o2)cc1	8.33µg/mL*
COC(=O)C1=C(C)Nc2nc(SCc3ccccc3)[nH]c(=O)c2C1c1ccc(Cl)cc1 (stereo unspecified)	64.4%
O=C(NN1C(=O)/C(=C/c2cccc(O)c2)SC1=S)c1ccncc1	65.2%
COc1ccc(C2C(C(=O)c3cccs3)=C(O)C(=O)N2c2nncs2)cc1 (stereo unspecified)	1.7%
O=C(O)c1ccc2c(c1)C(=O)N(c1ccccn1)C2=O	2.9%
CCS(=O)(=O)c1cccc(C(=O)Nc2nnc(-c3ccc(F)cc3)o2)c1	81.5%
COc1ccc(-c2nnc3c4cc5c(cc4n(Cc4cccc(C)c4)cc2-3)OCCO5)cc1OC	0.6%
Fc1cccc(-c2nnn3c2nc(NC2CCCCC2)c2ccccc23)c1	2.6%
Cc1cc2cc(CCNC(=O)c3ccccc3I)c(=O)[nH]c2cc1C	-3.9%
O=C(O)c1ccc(/C=N/Nc2cn[nH]c(=O)n2)cc1	2.7%
Cc1ccc(-c2csc3ncn(CC(N)=O)c(=O)c23)cc1C	0.5%
Cc1ccccc1-c1nnc(NC(=O)C(C)Sc2nncn2C)s1 (stereo unspecified)	-4.8%
O=C(COc1ccccc1)c1ccc(O)c(O)c1O	-13.6%
CCN(C(=O)CCn1c(=O)oc2ccccc21)c1ccccc1	-1.3%
COc1cccc(Cn2cc3c(-c4ccc(Cl)cc4)nnc-3c3ccccc32)c1	71.8%
COc1ccc(C(=O)Nc2nc3ccc(NC(C)=O)cc3s2)cc1OC	0.1%
O=C(Cn1cnc2c(nnn2-c2ccccc2)c1=O)Nc1ccc2c(c1)OCCO2	-3.8%
COc1ccc(-c2ccc(SCC(=O)NCc3ccccc3)nn2)cc1OC	-1.9%
Cc1cc(=S)n2ccsc2n1	-10.4%
Cn1c(=O)[nH]c(=O)c2c1nc(SCC(=O)Nc1ccccc1)n2Cc1ccccc1Cl	25.3%
CCOC(=O)c1nn(-c2ccc(Cl)c(Cl)c2)cc1O	73.6%
CN(Cc1ccccc1)C(=O)NC1CC(=O)N(c2cccc(F)c2)C1 (stereo unspecified)	0.9%
Cc1cccc(NC(=O)COc2ccc3c(=O)c(-c4ccccc4)coc3c2)c1C	-1.2%
O=C(Nc1cc(=O)[nH]c(=O)[nH]1)c1cc(Br)ccc1Cl	11.1%
O=C(c1cccs1)N1N=C(c2ccc(O)cc2)CC1c1ccccc1 (stereo unspecified)	13.8%
O=C(NCC1CCCO1)C(=O)Nc1cc2c3c(c1)CCN3C(=O)CC2 (stereo unspecified)	3.4%
Cc1ccc(Sc2nc3c(c(=O)[nH]c(=O)n3C)n2CCCc2ccccc2)cc1	-5.3%
COc1ccc2c(c1)O/C(=C\c1ccc(OC(=O)c3ccco3)c(OC)c1)C2=O	-12.6%
Cc1cc(NC(=O)c2ccccc2I)nc2c1c(=O)oc1ccccc12	-2.2%
O=C(Nc1nnc(-c2ccccc2Cl)s1)c1ccc2ccccc2c1	13.0%
CCOc1cccc2sc(N3CCN(c4nc5ccccc5s4)CC3)nc12	4.5%
CC(=O)N1CCc2c(sc(NC(=O)c3ccc(F)cc3)c2-c2nc3ccccc3s2)C1	7.3%
Cc1ccc(NC(=O)CSc2nc(N)c(NC(=O)c3cccs3)c(=O)[nH]2)cc1	-10.9%
CCc1ccc(OCC(=O)N/N=C/c2ccc(O)cc2)cc1	-9.3%
Cc1cc(C)cc(-n2nc3c(c2NC(=O)/C=C\c2ccc4c(c2)OCO4)CSC3)c1	-4.8%
COC(=O)c1sccc1S(=O)(=O)Nc1ccc(OC)c(Cl)c1	0.1%
CCOc1ccc(NC(=O)c2sc3nc4c(cc3c2N)C(=O)CC(C)(C)C4)cc1	-7.9%
Cc1cc(OC(=O)c2cccc(Cl)c2)c([N+](=O)[O-])c(=O)[nH]1	14.8%
Cc1ccc2cc(CCNC(=O)c3ccccc3)c(=O)[nH]c2c1C	-5.0%
Cc1ccc(CSc2oc(-c3ccco3)nc2S(=O)(=O)c2ccccc2)cc1	1.3%
COc1cccc(N2CC(C)Cn3c2nc2c3c(=O)[nH]c(=O)n2C)c1 (stereo unspecified)	0.6%
COc1cc(NC(=O)COC(=O)c2cc(C(C)=O)n3ccccc23)cc(OC)c1	-9.8%
C=CCOC(=O)COc1ccc2c(=O)c(Oc3ccc(OC)cc3)coc2c1	33.0%
O=C(NCCCn1ccnc1)C(=O)Nc1cc2c3c(c1)CCC(=O)N3CCC2	-4.5%
O=C(c1ccc(NS(=O)(=O)c2cccc(F)c2)cc1)N1CCCCC1	-0.6%
COc1ccc(OC)c2[nH]c(=O)c(CCNC(=O)COc3ccc(Cl)cc3Cl)cc12	12.1%
N#C/C(=C\c1ccc(Cl)c(Cl)c1)c1nc2ccccc2c(=O)[nH]1	0.7%
Cc1noc(NS(=O)(=O)c2ccc(NC(=O)c3ccc(Br)cc3)cc2)c1C	-7.0%
Fc1cccc2sc(Nc3nnc(-c4cccs4)o3)nc12	?
O=C(Cn1cnc2scc(-c3ccccc3)c2c1=O)NCc1ccco1	6.2%
Cc1cccc(CC(=O)NCCc2cc3ccc(C)cc3[nH]c2=O)c1	12.9%
CC(=O)N1CCCc2ccc(NC(=O)C(=O)NCCc3ccc(S(N)(=O)=O)cc3)cc21	4.7%
COc1ccc2cc(CCNC(=O)C3CCCCC3)c(=O)[nH]c2c1	-14.0%
Cc1nn(-c2ccccc2)c(N)c1N=Nc1cccnc1	3.4%
O=C1NC2=C(C(=O)N(CCO)C2)C(c2ccc(F)cc2)N1 (stereo unspecified)	-18.0%
O=C(Nc1nc(-c2ccc3c(c2)CCCC3)cs1)c1ccc(S(=O)(=O)N2CCCC2)cc1	16.9%
O=[N+]([O-])c1ccc(C(O)CNC(=S)Nc2ccccc2)cc1 (stereo unspecified)	8.1%
CCCc1cc(=O)n2c([nH]c3ccccc32)c1C#N	15.0%
COc1ccc(OC)c2[nH]c(=O)c(CCNC(=O)c3cccc(Br)c3)cc12	4.2%
COc1ccc(OC)c(NC(=O)CSc2nc(N)c(NC(=O)c3cccs3)c(=O)[nH]2)c1	-1.9%
CC(C)c1ccc(Oc2ncnc(N)c2[N+](=O)[O-])cc1	16.5%
OCCOCCNc1ncnc2c1cnn2-c1ccc(Cl)c(Cl)c1	17.1%
Carrying on.
SMILES	Mtb growth
O=C(O)CCc1nc2ccccc2[nH]c1=O	-7.2%
CC(=O)c1ccc(NC(=O)CC(NCCC2=CCCCC2)C(=O)O)cc1 (stereo unspecified)	-15.2%
Cn1c(=O)[nH]c(=O)c2c1nc(N1CCN(CCO)CC1)n2CCSc1nc2ccccc2s1	-2.9%
Cc1cccc(Cc2cnc(NC(=O)/C=C3\SC(=O)NC3=O)s2)c1	-14.4%
CC1CCCCN1S(=O)(=O)c1ccc(C(=O)Nc2nnc(-c3ccc(Br)cc3)o2)cc1 (stereo unspecified)	17.3µg/mL*
CCN(CC)S(=O)(=O)c1ccc2c3c(cccc13)C(=O)N2C(=O)c1ccncc1	5.6%
COc1ccc(OC)c2[nH]c(=O)c(CCNC(=O)c3ccc(S(=O)(=O)N4CCCC4)cc3)cc12	-3.4%
CCCC(=O)Oc1cc(C)[nH]c(=O)c1[N+](=O)[O-]	-1.1%
COc1cc(-c2nnc(NC(=O)c3ccc([N+](=O)[O-])cc3)o2)cc(OC)c1OC	-5.6%
CC(C)(C)c1ccc(S(=O)(=O)c2cn(CC(=O)Nc3ccc(F)cc3)c3ccccc3c2=O)cc1	52.2%
NC(=O)c1c(NC(=O)C2CC2)sc2c1CCCC2	-0.5%
COc1ccc(S(=O)(=O)Nc2nc(CC(=O)NCc3cccc(OC)c3)cs2)cc1	-13.0%
O=C(/C=C/c1ccccc1)Nc1nc(-c2ccc3c(c2)CCCC3)cs1	38.1%
CC(C)(C)/C(O)=C(/C#N)c1nc2ccccc2[nH]1	16.6µg/mL*
O=C(Nc1c(C(=O)Nc2ccc(F)c(Cl)c2)oc2ccccc12)c1ccc2c(c1)OCO2	-4.5%

Structures above with a COOH group, in the order listed:
SMILES	Mtb growth
O=C(O)c1ccc2c(c1)C(=O)N(c1ccccn1)C2=O	2.9%
O=C(O)c1ccc(/C=N/Nc2cn[nH]c(=O)n2)cc1	2.7%
O=C(O)CCc1nc2ccccc2[nH]c1=O	-7.2%
CC(=O)c1ccc(NC(=O)CC(NCCC2=CCCCC2)C(=O)O)cc1 (stereo unspecified)	-15.2%

Additional entries:
SMILES	Mtb growth
CCN1CCCC1CNc1ncnc(N)c1[N+](=O)[O-] (stereo unspecified)	-3.5%
O=C(Nc1nc2c(s1)CCc1ccccc1-2)c1ccc(C(=O)c2ccccc2)cc1	-0.4%
CC(=O)c1c(C)oc2ccc(NS(=O)(=O)c3cccc([N+](=O)[O-])c3)cc12	-2.1%
CN1CCc2c(sc(NC(=O)c3ccc(S(=O)(=O)N(C)C)cc3)c2C(N)=O)C1	-0.4%
COc1ccc(C(=O)Nc2cc3c4c(c2)CCN4C(=O)CC3)c(OC)c1	4.9%
Cc1nnc(SCC(=O)Nc2nccs2)n(N)c1=O	-4.9%
CCOC(=O)c1nn(-c2ccc(C(F)(F)F)cc2)c(=O)c2c(NC(=O)c3ccc(S(=O)(=O)N(C)C)cc3)scc12	3.6%
COc1ccc(N2CC(NC(=O)N(C)Cc3ccccc3)CC2=O)cc1 (stereo unspecified)	11.4%
Cc1ccc(Cn2cc(SCC(N)=O)c3ccccc32)cc1	-7.1%
COc1cccc(/C=N/Nc2nc3c(c(=O)[nH]c(=O)n3C)n2CC(C)O)c1O (stereo unspecified)	-4.1%
O=C(c1cccs1)N1CCN=C1SCc1ccc(Cl)cc1	7.5%
COc1ccc2sc(Nc3nnc(-c4ccco4)o3)nc2c1	80µg/mL*
COC(=O)Cn1c(=NC(=O)c2ccc([N+](=O)[O-])o2)sc2cc3c(cc21)OCO3	9.7%
